PINK1 expr mod = modulators of PINK1 expression; PINK1 immunofluorescence, high-content cytometry, 24 h; Potency, µM (titrated, usually from 76.6 µM), inactives show top-dose activation (PINK1 increase), most hits filed as activators; 0.2% of 410,000 active; active = well fitted activation curve with a large enough effect; inconclusive = small, poorly fitted or top-dose-only effect; inactive = flat fitted curve, though single readings scatter; cell line not stated here;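 also: potency is read from the fitted curve at half-maximal effect; % of control where 0% means no effect; nearly all actives have a fitted effect of over 65% in size; a mitochondrial uncoupler was the plate control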
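Stable cell line treated 24 h with compounds at 5 concentrations (CCCP controls), then fixed and immunostained for PINK1 plus nuclear and cell stains; PINK1 immunofluorescence quantified by laser-scanning microplate cytometry.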
CtBP-E1A inh = CtBP/E1A binding inhibition; activity change, % (concentration not given with the values); 0.49% of 340,000 active; AlphaScreen GST-E1A/His-CtBP binding, 1536-well; stronger effect = lower value; control for the full effect not named in the record; in the data active means activity change below about -65%; inconclusive means about -30% to -65%; inactive means above about -30%; also: % is scaled to controls: 0 for no effect and ±100 for the full control effect
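Protein mix (5X: 125 nM each GST-E1A, His-CtBP) was incubated with pinned compound 2 h at 37 deg C in dark, in 50 mM Tris pH 8.0 buffer with 300 mM NaCl. Glutathione donor and nickel acceptor beads followed; AlphaScreen signal read after 1 h.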
D2 ag = human D2 receptor agonism in beta-arrestin assay; 0.084% of 360,000 active; activation, % (concentration not given with the values); DiscoveRx PathHunter D2 beta-arrestin, luminescence, 90 min; 100% = 57 uM dopamine signal; P14416; in the data active = activation above about 40%; inconclusive = about 15% to 40%; inactive = below about 15%; also: compound concentration not given in the record; the text of the record calls up to 30% inactive
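DiscoveRx PathHunter D2 beta-arrestin cells (2,100/well) attached overnight, then compound-stimulated 90 min at 37 C in HBSS/10 mM HEPES/0.1% Tween-20 buffer; beta-galactosidase complementation read by luminescence after 1 h at ambient temperature. Dopamine 57 uM final (EC100) as control.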
TRPML1 agonist = human mucolipin-1 channel agonism; 0.12% of 410,000 active; activation, % (concentration not given with the values); TRPML1-expressing cells, Ca2+ dye fluorescence, FDSS; host cell line not named in the record; reference of the full effect not given here; in the data active = activation above about 50%; inconclusive = about 30% to 50%; inactive = below about 30%; also: 0% is about no effect; the text of the record puts the active cut at 80%
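Agonist activity was taken from a 110 s kinetic Ca2+ dye read on the FDSS after pinning compounds onto TRPML1-DL cells. The cells were seeded at 1,500/well with Tet inducer, incubated about 16 h, then dye-loaded at room temperature.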
Six1-Eya2 blk = inhibitors of human Six1/Eya2 interaction | activity change, % (no concentration beside the values) | AlphaScreen GST-Six1/His-Eya2 binding, biochemical; stronger effect = lower value; control for the full effect not named in the record | 0.56% of 360,000 active | Q15475+O00167; in the data active = activity change below about -65%; inconclusive = about -30% to -65%; inactive = above about -30%; also: % is scaled to controls: 0 for no effect and ±100 for the full control effect; compound concentration not given in the record
Target sequence (O00167 whole entry, looked up): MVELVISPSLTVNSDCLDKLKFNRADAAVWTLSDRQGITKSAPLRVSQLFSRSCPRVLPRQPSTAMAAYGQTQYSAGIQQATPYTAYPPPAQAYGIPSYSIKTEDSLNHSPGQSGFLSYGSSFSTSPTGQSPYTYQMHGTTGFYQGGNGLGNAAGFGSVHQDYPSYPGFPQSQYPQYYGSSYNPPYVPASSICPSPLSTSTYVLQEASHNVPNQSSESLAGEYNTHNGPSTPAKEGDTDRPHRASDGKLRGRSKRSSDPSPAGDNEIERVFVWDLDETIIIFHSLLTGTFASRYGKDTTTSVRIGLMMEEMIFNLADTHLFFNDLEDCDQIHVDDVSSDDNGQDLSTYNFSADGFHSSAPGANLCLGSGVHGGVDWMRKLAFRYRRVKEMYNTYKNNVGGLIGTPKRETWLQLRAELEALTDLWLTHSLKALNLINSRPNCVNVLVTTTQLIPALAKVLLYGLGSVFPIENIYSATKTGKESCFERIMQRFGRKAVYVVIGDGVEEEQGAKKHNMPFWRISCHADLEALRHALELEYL
Target sequence (Q15475 whole entry, looked up): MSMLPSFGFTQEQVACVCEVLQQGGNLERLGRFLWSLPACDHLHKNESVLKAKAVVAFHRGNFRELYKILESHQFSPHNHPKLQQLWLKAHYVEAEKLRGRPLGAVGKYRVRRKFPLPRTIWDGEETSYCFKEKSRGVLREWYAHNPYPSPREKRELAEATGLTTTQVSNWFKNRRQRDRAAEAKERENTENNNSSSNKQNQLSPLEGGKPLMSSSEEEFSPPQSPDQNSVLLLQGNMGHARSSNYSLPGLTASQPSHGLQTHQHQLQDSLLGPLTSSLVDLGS
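Homogeneous AlphaScreen proximity assay pairing GST-Six1 with His-tagged Eya2 (added as 5X mix: 250 nM and 500 nM) in 50 mM Tris pH 8.0, 300 mM NaCl, 1 mM TCEP. Glutathione donor and nickel acceptor beads; 1 h, 37 °C, dark.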
D2 PAM = positive allosteric modulators of human D2 dopamine receptor; DiscoveRx D2 beta-arrestin cells, luminescence, 90 min; 100% = 57 uM dopamine signal; P14416; potentiation, % (no concentration beside the values); 0.23% of 360,000 active; active = potentiation of 50% or more; inconclusive = 30% to 50%; inactive = 30% or less;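 also: compound concentration not given in the record; tested on top of an EC20 dose of dopamine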
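PathHunter D2 cells, attached overnight at 37 deg C, received compound in DMSO plus dopamine at EC20 (50 nM final) for 90 min at 37 deg C. Beta-arrestin recruitment was read as luminescence after 1 h with detection reagent at ambient temperature.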
The depositor's hits bear a star; [ ] = another dose, or the depositor's remark. Random draw from the library. Share with any hit: about 1.3%.

Screening CCC(=O)N1CCc2cc(S(=O)(=O)NC(C(=O)N3CCc4ccccc4C3)C(C)C)ccc21 (configuration not stated) returned CtBP-E1A inh 0.0, D2 ag 0.0, TRPML1 agonist 0.0, Six1-Eya2 blk -0.6 and D2 PAM -21.3.
For Cc1cc(C(=O)CSc2nc(N)cc(=O)[nH]2)c(C)n1CCc1ccc(F)cc1 the results were PINK1 expr mod 0.2%, CtBP-E1A inh -9.8, D2 ag 4.7, TRPML1 agonist 0.1, Six1-Eya2 blk -7.2 and D2 PAM -8.8.
Screening C=CCOc1ccc(/C=C2\N=C(C)OC2=O)cc1OC returned PINK1 expr mod 0.2%, CtBP-E1A inh 1.1, D2 ag -2.8, TRPML1 agonist -0.2, Six1-Eya2 blk -3.4 and D2 PAM -3.2.
Screening O=C(C1=C[C@H](c2ccc(C(F)(F)F)cc2)C[C@H](OCCCCO)O1)N1CCN(Cc2ccccc2)CC1 returned PINK1 expr mod 3.3%, CtBP-E1A inh 1.3, D2 ag 2.6, TRPML1 agonist -0.1, Six1-Eya2 blk -8.2 and D2 PAM -5.4.
Screening CC(C)Cn1c(N)c(C(=O)CSc2nc3ccccc3n2C)c(=O)n(C)c1=O returned PINK1 expr mod 18.1%[38.3 µM], CtBP-E1A inh -6.0, D2 ag 3.3, TRPML1 agonist -0.3, Six1-Eya2 blk 3.0 and D2 PAM -5.8.
`Cc1ccc(C(C)NC(=O)Cn2nc(C)c([N+](=O)[O-])c2C)cc1` (configuration not stated) gave PINK1 expr mod 0.9%, CtBP-E1A inh 4.9, D2 ag -6.2, TRPML1 agonist -1.7, Six1-Eya2 blk 3.1 and D2 PAM -6.6.
CCOC(=O)c1nnn(CC(=O)Nc2cccc(Cl)c2C)c1C(=O)OCC was read as PINK1 expr mod -0.6%, CtBP-E1A inh -3.9, D2 ag -2.0, TRPML1 agonist 0.0, Six1-Eya2 blk 4.3 and D2 PAM 24.3.
For O=C(CSc1n[nH]c(C2CCCC2)n1)NC1CCCC1 the results were PINK1 expr mod -0.9%, CtBP-E1A inh 2.0, D2 ag -1.9, TRPML1 agonist -0.6, Six1-Eya2 blk 7.5 and D2 PAM -1.4.
`COc1cc(C(=O)N2CCCCC2c2cc(C(=O)Nc3ccccc3)no2)cc(OC)c1C` (configuration not stated) gave PINK1 expr mod 2.1%, CtBP-E1A inh -8.0, D2 ag 4.9, TRPML1 agonist -0.1, Six1-Eya2 blk -10.1 and D2 PAM 0.5.
Screening CC(=N)c1c(O)c2ccccc2oc1=O returned PINK1 expr mod 3.0%, CtBP-E1A inh -3.2, D2 ag -6.8, Six1-Eya2 blk -15.7 and D2 PAM -7.8.
`CCC(=O)NC(c1cccs1)c1cc([N+](=O)[O-])c2cccnc2c1O` (configuration not stated) gave PINK1 expr mod 5.1%, CtBP-E1A inh -83.5*, D2 ag -0.2, TRPML1 agonist 1.6, Six1-Eya2 blk -85.4* and D2 PAM -17.6.
`CC(C)CCSc1nc2ccccc2[nH]1` gave PINK1 expr mod 2.1%, CtBP-E1A inh -2.4, D2 ag -3.7, TRPML1 agonist -0.7, Six1-Eya2 blk -8.2 and D2 PAM -16.8.
For COc1ccc(-n2cnnc2SCC(=O)Nc2cc(C)on2)cc1 the results were PINK1 expr mod 3.1%, CtBP-E1A inh 5.0, D2 ag 9.0, TRPML1 agonist 0.4, Six1-Eya2 blk 6.9 and D2 PAM 0.2.
`CC1(C)[C@H]2CC[C@]1(C)[C@@H](OC(=O)C[N+]1(C)CCOCC1)C2` gave PINK1 expr mod 1.1%, CtBP-E1A inh 0.5, D2 ag -5.6, TRPML1 agonist 0.1, Six1-Eya2 blk 6.6 and D2 PAM -6.5.
`Cc1ccccc1C(=O)N1CCC(C(=O)Nc2ccccc2Cl)CC1` gave PINK1 expr mod 5.6%, CtBP-E1A inh 11.9, D2 ag -5.7, TRPML1 agonist 0.2, Six1-Eya2 blk -3.6 and D2 PAM 14.0.
`COc1cccc(/C=C/C(=O)OCC(=O)N(C)CC(=O)Nc2ccccc2Cl)c1OC` gave PINK1 expr mod -1.1%, CtBP-E1A inh 2.0, D2 ag 1.0, TRPML1 agonist 0.8, Six1-Eya2 blk 1.8 and D2 PAM -2.8.
CCC(=O)c1ccc(OCC(=O)OCC(=O)Nc2ccc(C)c(S(=O)(=O)N3CCCCC3)c2)cc1 was read as PINK1 expr mod 0.8%, D2 ag -2.4, TRPML1 agonist -1.6, Six1-Eya2 blk 0.2 and D2 PAM 0.2.
O=C(Nc1cccs1)N1CCN(c2ncccn2)CC1 was read as PINK1 expr mod 1.3%, D2 ag -0.1, TRPML1 agonist 0.8, Six1-Eya2 blk -2.9 and D2 PAM -2.6.
Cn1nnnc1SCCNCc1cccnc1 was read as PINK1 expr mod -1.7%[38.3 µM], CtBP-E1A inh 15.3, D2 ag -2.2, TRPML1 agonist 0.3, Six1-Eya2 blk 3.3 and D2 PAM -4.3.
For Cc1ccc(/C(=N\S(=O)(=O)c2ccc(Br)cc2)Nc2ccccc2C)cc1 the results were PINK1 expr mod 12.8%, CtBP-E1A inh -0.5, D2 ag 3.1, TRPML1 agonist 1.0, Six1-Eya2 blk 4.7 and D2 PAM -6.5.
`O=C(CCN1C(=O)[C@H]2CC=CC[C@H]2C1=O)NCc1nc(-c2ccccc2)no1` gave PINK1 expr mod -0.1%, CtBP-E1A inh -13.9, D2 ag 5.1, TRPML1 agonist 0.3, Six1-Eya2 blk 2.5 and D2 PAM -9.2.
Screening CC(C)Cc1nnc(NC(=O)CCC(=O)N2CCN(S(=O)(=O)c3ccccc3)CC2)s1 returned PINK1 expr mod 2.1%, CtBP-E1A inh -5.7, D2 ag -0.6, TRPML1 agonist 0.0, Six1-Eya2 blk 2.4 and D2 PAM -15.0.
O=C(CNS(=O)(=O)c1ccccc1F)NNC(=O)c1ccc(Br)cc1 was read as PINK1 expr mod 2.3%, CtBP-E1A inh -15.1, D2 ag -2.6, TRPML1 agonist -0.1, Six1-Eya2 blk 11.2 and D2 PAM -13.1.
Screening Cc1ccc(S(=O)(=O)NC2=C(N3CCN(Cc4ccccc4)CC3)C(=O)c3ccccc3C2=O)cc1 returned PINK1 expr mod -2.7%, CtBP-E1A inh inconclusive, D2 ag -3.7, TRPML1 agonist -0.9, Six1-Eya2 blk inconclusive and D2 PAM -21.6.
CCCCn1nc2cc(C(=O)NCc3ccc(OC(F)(F)F)cc3)ccc2c1OC was read as PINK1 expr mod 0.8%, CtBP-E1A inh 6.1, D2 ag -4.2, TRPML1 agonist 0.0, Six1-Eya2 blk inconclusive and D2 PAM -11.2.
Screening CC[C@@]1(O)C(=O)OCc2c1cc1n(c2=O)Cc2cc3c(N)cccc3nc2-1 returned PINK1 expr mod 0.1%, CtBP-E1A inh 0.0, D2 ag 6.0, TRPML1 agonist -1.0, Six1-Eya2 blk -1.0 and D2 PAM inconclusive.
O=C1C=C(Nc2cccc3cccnc23)c2ccccc2C1=O was read as PINK1 expr mod 0.0%, CtBP-E1A inh inconclusive, D2 ag 14.6, TRPML1 agonist 4.6, Six1-Eya2 blk inconclusive and D2 PAM -1.3.
`CC(=O)Nc1ccccc1OCC(=O)NCCC1=CCCCC1` gave PINK1 expr mod -0.2%, CtBP-E1A inh 11.0, D2 ag 4.4, TRPML1 agonist -0.1, Six1-Eya2 blk 0.9 and D2 PAM -4.0.
Screening COCCNC(=O)CCCn1c(=O)c2cc(OC)c(OC)cc2n(CC(=O)c2cccc(OC)c2)c1=O returned PINK1 expr mod -0.3%, D2 ag 12.6, TRPML1 agonist 0.1, Six1-Eya2 blk -16.9 and D2 PAM 2.1.
For Cc1cc(C)cc(NC(=O)C(Nc2ccccc2)c2ccccc2)c1 (configuration not stated) the results were PINK1 expr mod 4.5%, CtBP-E1A inh 1.5, D2 ag -4.4, TRPML1 agonist 5.9, Six1-Eya2 blk -4.0 and D2 PAM 0.2.
Screening COc1ccc(CC(=O)Nc2nc3ccccc3[nH]2)cc1 returned PINK1 expr mod 7.2%, CtBP-E1A inh 7.6, D2 ag -1.1, TRPML1 agonist 0.4, Six1-Eya2 blk 3.0 and D2 PAM -5.6.
Screening O=C(Cc1csc(Nc2nc(=S)[nH]c3ccccc23)n1)NCCCN1CCN(c2ccccc2F)CC1 returned PINK1 expr mod -0.2%, CtBP-E1A inh 0.4, D2 ag 12.7, TRPML1 agonist -0.8, Six1-Eya2 blk -30.0 and D2 PAM -27.8.
`Cc1ccc(N2C(N)=C(C#N)C3(C(=O)N(C)c4ccccc43)C3=C2CC(C)(C)CC3=O)cc1Cl` (configuration not stated) gave PINK1 expr mod 3.2%, CtBP-E1A inh 2.1, D2 ag -1.2, TRPML1 agonist -0.8, Six1-Eya2 blk 6.0 and D2 PAM -2.0.
Cc1ccccc1Nc1nc(N)nc(COC(=O)c2cccn2C)n1 was read as PINK1 expr mod 0.2%, CtBP-E1A inh 19.8, D2 ag -2.8, TRPML1 agonist -0.2, Six1-Eya2 blk 4.5 and D2 PAM -20.7.
Screening N#Cc1cccc(NC(=O)c2cc(C3CCCCN3C(=O)C3CC3)on2)c1 (configuration not stated) returned PINK1 expr mod 5.4%, CtBP-E1A inh 5.7, D2 ag -4.5, TRPML1 agonist 0.4, Six1-Eya2 blk -5.0 and D2 PAM -5.5.
CCc1sc(C(=O)N2CCN(S(C)(=O)=O)CC2)cc1Br was read as PINK1 expr mod 4.0%[38.3 µM], CtBP-E1A inh 3.9, D2 ag -3.1, TRPML1 agonist 0.5, Six1-Eya2 blk 0.0 and D2 PAM -10.6.
COc1ccc(CN=Cc2[nH]c3ccc(Br)c(Cl)c3c2O)cc1 was read as PINK1 expr mod inconclusive, CtBP-E1A inh -3.6, D2 ag 4.8, TRPML1 agonist 2.9, Six1-Eya2 blk -1.0 and D2 PAM -1.7.
Screening C=CCn1cc(C(=O)OC)c(=O)c2cc(S(=O)(=O)N3CCC(C)CC3)ccc21 returned PINK1 expr mod 1.0%[38.3 µM], CtBP-E1A inh -5.5, D2 ag -2.1, TRPML1 agonist 0.1, Six1-Eya2 blk -1.9 and D2 PAM -2.4.
`COc1cc(C(=O)OCC(=O)c2cc(C)n(CC3CCCO3)c2C)cc(OC)c1C` (configuration not stated) gave PINK1 expr mod -0.8%, CtBP-E1A inh -9.2, D2 ag 12.9, TRPML1 agonist 1.4, Six1-Eya2 blk -18.1 and D2 PAM -4.2.
For Cc1nonc1NC(=O)CSc1nc2c(C)cccc2cc1C#N the results were PINK1 expr mod 44.7µM*, D2 ag -1.9, TRPML1 agonist 3.4, Six1-Eya2 blk -9.0 and D2 PAM -0.6.
For C[C@@H]1CN([C@H](C)CO)C(=O)CCCn2nncc2CO[C@H]1CN(C)Cc1cccc(C(=O)O)c1 the results were PINK1 expr mod -1.6%, CtBP-E1A inh 0.0, D2 ag -2.6, TRPML1 agonist 0.2, Six1-Eya2 blk 9.5 and D2 PAM -3.7.

Bioassay records: PubChem BioAssay, National Center for Advancing Translational Sciences (NCATS)
